RanGTP-Imp inh = disruptors of Ran-importin-beta complex formation – biochemical, FRET, CFP-Ran, YFP-importin-beta, homogeneous, primary screen; AID 2216; inhibition, % (test concentration not listed); cell-free CFP-Ran/YFP-importin-beta FRET ratio; hit rate 1.1% among 300,000;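 active = most replicates above 15%; inconclusive = exactly half above 15%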;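 also: 0% = DMSO wells and 100% = Ran loaded with GDP instead of GTP; wells of about 40 µL received 100 nL stock; the first replicate is given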
A1 inh = inhibitors of the anti-apoptotic protein A1, read as caspase activation; MEF A1-2A-BIM cells, Caspase-Glo 3/7 luminescence, 3 h; percent of clofoctol response, vehicle zero; caspase activation, % (concentration not given with the values); hit rate 0.066% among 330,000; AID 2462;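 active = over half of replicate activation scores above 10%, or exactly half above 10 with the replicate mean above 10; inconclusive = replicate mean below 10 yet half the replicates above 10; inactive = over half of replicates below 10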;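 also: wells of about 30 µL received 50 nL stock; many hits fall short of the cut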
Calb FLC = affects C. albicans growth with fluconazole; C. albicans CaCi-2 (fluconazole-resistant clinical isolate) + fluconazole, Alamar Blue growth, 48 h; growth inhibition, % (test concentration not listed); hit rate 0.57% among 300,000;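 active = most replicates above 75%; inconclusive = exactly half above 75%; inactive = most below 75%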;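 also: all wells also contain fluconazole at 8 µg/ml as a sub-toxic cotreatment; 0% = median of DMSO wells and 100% = median of geldanamycin control wells; wells of about 8 µL received 7.5 nL stock; the first replicate is given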
LANA-H2B inh = blocks KSHV LANA binding to histone H2A/H2B; AID 2629; hit rate 0.6% among 320,000; inhibition, % (no concentration beside the values); Q9QR71; cell-free LANA-H2A/H2B peptide, fluorescence polarization; in the data active = inhibition mostly above about 10%, no sharp cut-off; inactive = mostly below about 6.7%;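 also: stock transfer was 7.5 nL into about 10 µL; 0% = median of vehicle wells and 100% = median of positive control wells; one replicate is shown; the record names a cut of 25% in any replicate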
Beta apoptosis = blocks beta cell apoptosis | INS-1E cytokine-induced death, ATP luminescence, 48 h; percent of positive-control rescue, neutral wells zero | protection from apoptosis, % (test concentration not listed) | hit rate 0.8% among 300,000 | AID 435005;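 active = all replicates at 75% or more, or half of them and the mean; inconclusive = half reach 75% but not the mean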;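 also: 0% = cytokine-treated negative control wells and 100% = positive control rescue; higher means more ATP so stronger rescue from cytokine killing; wells of about 40 µL received 100 nL stock; the first replicate is given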
T cruzi repl = T. cruzi replication inhibition | T. cruzi beta-gal in NIH3T3, luminescence, 90 h | inhibition, % (test concentration not listed) | hit rate 1.4% among 300,000 | AID 1885;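 active = mean inhibition across valid replicates above about 55%, limit read from the data; inconclusive = mean below that limit but half or more replicates reach it; inactive = mean below it, under half of replicates reach it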;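 also: signal also drops with host cell toxicity which is not excluded here; 0% = plate median of DMSO wells and 100% = zero luminescence signal; higher percent means less beta-gal luminescence so fewer parasites; stock transfer was 50 nL into about 50 µL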
Beta2AR agonist = human beta-2 adrenergic receptor agonism by FAP | P07550 | Am2.2-beta2AR cells, FAP receptor internalization, flow cytometry; reference of the scale not given here | response, % (no concentration beside the values) | hit rate 0.43% among 340,000 | AID 504454;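 active = response above a set limit, near 3 SD of response in nonfluorescent compounds, cut at about 42% in these data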;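 also: stock transfer was 100 nL into about 11 µL; a reference agonist was the positive control; negative values mostly stem from fluorescent compounds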
Target sequence (P07550 whole entry, looked up): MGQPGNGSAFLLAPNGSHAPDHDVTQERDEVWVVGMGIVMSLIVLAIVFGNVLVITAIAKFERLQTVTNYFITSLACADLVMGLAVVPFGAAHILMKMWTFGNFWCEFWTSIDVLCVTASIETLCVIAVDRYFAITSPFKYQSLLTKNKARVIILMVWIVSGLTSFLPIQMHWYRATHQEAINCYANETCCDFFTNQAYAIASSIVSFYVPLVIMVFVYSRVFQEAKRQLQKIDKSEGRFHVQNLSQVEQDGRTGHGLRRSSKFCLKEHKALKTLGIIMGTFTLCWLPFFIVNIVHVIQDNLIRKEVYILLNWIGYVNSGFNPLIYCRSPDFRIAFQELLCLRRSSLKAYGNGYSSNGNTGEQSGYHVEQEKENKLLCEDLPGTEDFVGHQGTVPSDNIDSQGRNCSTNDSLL
UCH37 DUB inh = human UCH37 deubiquitinating enzyme inhibition; Q9Y5K5; purified proteasome/UCH37, Ub-AMC cleavage fluorescence; hit rate 0.33% among 330,000; inhibition, % (test concentration not listed);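 active = mean of two replicates above 20%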;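 also: 0% = compound-free wells with enzyme and 100% = wells lacking proteasome; stock transfer was 100 nL into about 20 µL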
Target sequence (Q9Y5K5 whole entry, looked up): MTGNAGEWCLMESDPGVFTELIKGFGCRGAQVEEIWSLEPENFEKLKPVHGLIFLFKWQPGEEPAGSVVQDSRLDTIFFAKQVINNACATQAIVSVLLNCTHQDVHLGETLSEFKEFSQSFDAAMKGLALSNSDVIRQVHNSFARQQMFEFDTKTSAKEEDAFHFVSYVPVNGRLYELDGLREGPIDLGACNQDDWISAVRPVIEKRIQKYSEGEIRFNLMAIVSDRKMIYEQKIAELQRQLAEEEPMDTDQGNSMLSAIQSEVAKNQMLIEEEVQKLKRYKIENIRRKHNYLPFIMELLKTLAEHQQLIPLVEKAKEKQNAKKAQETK
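Reagent: Ub-AMC substrate; assay system: Proteasome-associated human UCH37 deubiquitinase; controls: no-proteasome and no-compound wells; read-out: % inhibition of Ub-AMC cleavage fluorescence; timing: 30 min preincubation with enzyme, 25 min cleavage at room temperature; signal: AMC fluorescence from Ub-AMC cleavage, excitation 355 nm, emission 460 nm; buffer or medium: Tris-HCl pH 7.4 plus ovalbumin, ATP-MgCl2, DTT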
The depositor's hits bear a star; ? = inconclusive; · = no result given.

Every second line gives: RanGTP-Imp inh	A1 inh	Calb FLC	LANA-H2B inh	Beta apoptosis	T cruzi repl	Beta2AR agonist	UCH37 DUB inh
- COc1ccc(C2C(C(=O)/C=C/c3ccco3)=C(O)C(=O)N2CCN2CCOCC2)cc1OC (configuration not stated)
→ ?	-0.2	8.3	2.6	·	-12.4	-6.9	7.2
- NC(=O)CN1CCN(c2ccccc2F)CC1
→ ·	-0.8	·	3.3	0.0	·	-6.8	1.9
- COc1ccc(OCc2ccc(C(=O)N3CCOCC3)cc2)cc1
→ 6.6	-3.0	-21.1	-0.1	-2.3	5.1	-1.1	-1.8
- O=C(Cc1noc2ccccc12)Nc1ccccn1
→ 0.4	-3.2	5.1	-6.1	-1.2	-10.2	3.5	7.7
- CCCCCN(C(=O)CCC(=O)OCc1ccccc1Cl)c1c(N)n(CCCC)c(=O)[nH]c1=O
→ 1.3	0.3	-0.8	-2.4	-3.6	-0.9	-3.4	0.7
- CNC(=O)COC(=O)/C=C/c1cccs1
→ 3.8	-0.8	-10.3	2.5	-1.8	3.9	0.6	4.4
- COc1cc(C=NNC(=O)c2ccccc2-n2cccc2)ccc1O
→ ·	0.6	·	3.1	3.5	·	-14.0	6.7
- Cc1cccc(N2C(=O)SC(N(CC(=O)O)c3cccc(C)c3)C2=O)c1 (configuration not stated)
→ -1.7	-0.4	-5.4	1.4	-2.6	-2.3	3.5	2.2
- CC(Sc1ccccc1)C(=O)NN=C1CCCCCC1 (configuration not stated)
→ 0.8	-0.5	-43.4	-0.2	-2.7	-13.1	1.0	3.5
- Cc1ccc(CNC(=O)c2ccc3c(=O)n(CCCN4CCCC4=O)c(=S)[nH]c3c2)cc1
→ -0.8	1.0	5.2	-3.6	-3.6	2.0	-5.2	-0.2

In another format: six of the compounds above
| Structure | RanGTP-Imp inh | A1 inh | Calb FLC | LANA-H2B inh | Beta apoptosis | T cruzi repl | Beta2AR agonist | UCH37 DUB inh |
| --- | --- | --- | --- | --- | --- | --- | --- | --- |
| COc1ccc(C2C(C(=O)/C=C/c3ccco3)=C(O)C(=O)N2CCN2CCOCC2)cc1OC (configuration not stated) | ? | -0.2 | 8.3 | 2.6 | · | -12.4 | -6.9 | 7.2 |
| NC(=O)CN1CCN(c2ccccc2F)CC1 | · | -0.8 | · | 3.3 | 0.0 | · | -6.8 | 1.9 |
| COc1ccc(OCc2ccc(C(=O)N3CCOCC3)cc2)cc1 | 6.6 | -3.0 | -21.1 | -0.1 | -2.3 | 5.1 | -1.1 | -1.8 |
| O=C(Cc1noc2ccccc12)Nc1ccccn1 | 0.4 | -3.2 | 5.1 | -6.1 | -1.2 | -10.2 | 3.5 | 7.7 |
| CCCCCN(C(=O)CCC(=O)OCc1ccccc1Cl)c1c(N)n(CCCC)c(=O)[nH]c1=O | 1.3 | 0.3 | -0.8 | -2.4 | -3.6 | -0.9 | -3.4 | 0.7 |
| CNC(=O)COC(=O)/C=C/c1cccs1 | 3.8 | -0.8 | -10.3 | 2.5 | -1.8 | 3.9 | 0.6 | 4.4 |

Continuation:
Every second line gives: RanGTP-Imp inh	A1 inh	Calb FLC	LANA-H2B inh	Beta apoptosis	T cruzi repl	Beta2AR agonist	UCH37 DUB inh
- Cc1cc(C)n(CCN(C)C(=O)c2cc(COc3c(F)cccc3F)on2)n1
→ -2.4	0.5	9.7	0.4	-6.4	-18.0	4.2	-0.1
- Nc1ccccc1Oc1ncc(C(F)(F)F)cc1Cl
→ -5.2	1.6	-8.1	4.9	·	18.5	-19.8	5.7
- CCNC(=O)NC(=O)C(C)OC(=O)CNS(=O)(=O)c1c(Cl)cc(Br)cc1Cl (configuration not stated)
→ 0.3	0.5	-5.1	-4.8	-3.3	-6.3	6.6	-0.9
- CSc1nnc(CNS(=O)(=O)c2ccc(Br)cc2)n1C
→ -3.8	1.0	11.8	0.6	-2.4	1.9	-1.4	4.5
- O=C(CCCC(=O)OCC(Cl)=C(Cl)Cl)Nc1ccccc1
→ 1.4	0.3	-2.8	2.3	-0.7	3.4	2.8	2.2
- CCCN(C1CCS(=O)(=O)C1)S(=O)(=O)c1ccc(F)cc1 (configuration not stated)
→ -1.3	-0.1	-9.8	4.5	-2.5	-3.3	3.7	0.9
- Nc1nc2ccccc2n1CCOc1ccc(Br)cc1
→ 5.2	-0.2	4.6	-0.2	6.9	23.4	6.2	-0.6
- O=C(O)CCc1ccc(-c2cccs2)n1CCC(=O)O
→ 2.4	0.6	7.1	1.7	-3.6	-29.0	-2.8	0.7
- Cc1c(C)c2c(OCC(=O)N3CCC(O)CC3)cc3c(c2oc1=O)CCC(C)(C)O3
→ -1.2	-0.5	-6.0	-3.4	·	14.2	-31.4	-464.1
- Cc1nc2ccccc2[nH]c1=O
→ 0.1	0.2	-11.9	-16.4	0.7	-22.4	4.0	-27.4
- CCC(=O)N1CCN(c2ccc(NC(=O)c3ccc(Br)o3)cc2)CC1
→ -2.3	-1.9	7.5	1.3	2.1	8.9	-1.6	4.8
- CSc1ccc(C(=O)C2CCCN(C(=O)c3ccsc3)C2)cc1 (configuration not stated)
→ -0.1	0.4	6.6	1.2	-4.1	4.2	-11.4	4.6
- Cc1[nH]nc(SCC(=O)N2CCOCC2)c1[N+](=O)[O-]
→ 5.7	0.2	-4.3	-1.2	-2.4	-11.2	-4.4	4.9
- Cc1nn(-c2ccc(F)cc2)c(Cl)c1C(=O)OC(C)C(=O)N(C)C1CCCCC1 (configuration not stated)
→ ·	0.6	·	-3.8	-2.8	·	-1.4	-2.7
- Cn1ncc2c(Nc3ccccc3Cl)nc(Cl)nc21
→ -1.4	-0.9	22.7	2.2	-0.6	-23.2	-6.0	2.5
- CN(C)c1ccc(NC(=O)C2CCCN(S(=O)(=O)c3ccccc3)C2)cc1 (configuration not stated)
→ -0.8	3.7	-17.4	4.4	-7.3	-13.4	3.9	0.9
- CCOC(=O)Cc1c(C)nc2c(-c3cccc(Br)c3)c[nH]n2c1=O
→ 2.6	0.7	-11.7	1.9	18.4	-6.3	4.5	-15.1
- CCOc1ccc(N(CC(=O)NCc2ccc(Cl)cc2)S(=O)(=O)c2c(C)noc2C)cc1
→ ?	0.0	1.6	8.9	2.4	6.5	-2.9	0.5
- CCOC(=O)CNc1nc(Cl)nc(NC(C)(C)C)n1
→ 0.4	0.4	-0.9	6.7	0.5	-13.1	-0.7	2.4
- Cc1cccc2c(N=NC(=O)c3ccc(NS(=O)(=O)c4cccs4)cc3)c(O)[nH]c12
→ ·	-2.7	·	4.5	18.6	·	-3.3	6.3
- CCOc1ccc2nc(C(C)O)[nH]c2c1 (configuration not stated)
→ -2.2	0.7	-3.1	2.0	-1.7	-12.6	-4.0	2.5
- C=CCNC(=O)CN(c1ccc(F)cc1)S(=O)(=O)c1ccc(OC)cc1
→ ·	-0.2	·	1.5	-3.1	·	7.7	1.6
- COc1ccc(-c2oc3ccccc3c2C(=O)OCc2ccccc2OC)cc1
→ 4.2	0.2	-4.6	-0.3	6.3	-0.8	6.5	·
- CCn1c(SCC(=O)OCC(=O)N2c3ccccc3NC(=O)C2(C)C)nnc1-c1ccco1
→ 2.0	2.6	-6.7	1.8	-1.3	-14.4	5.1	2.0
- CCOc1ccc(NC(=O)Cn2nc(C(N)=O)c3ccccc3c2=O)cc1S(=O)(=O)N1CCCC1
→ ·	-0.4	·	0.3	-7.6	·	-0.7	3.7
- CN(c1ccccc1)S(=O)(=O)c1ccc(NC(=O)c2ccc(F)cc2)cc1
→ 5.4	-0.1	0.7	-0.7	·	13.8	-3.2	3.1
- COc1ccc(NC(=O)Nc2ccc3c(c2)CCC3)c(OC)c1
→ 2.5	0.1	30.7	-3.1	4.7	-7.5	7.6	1.7
- COc1cc(-c2nnc(NC(=O)c3ccc(S(=O)(=O)N4CCOCC4)cc3)o2)cc(OC)c1OC
→ 0.2	0.7	90.4*	-2.6	85.8*	-23.4	·	5.7
- COC(=O)C(C)n1cnc2c(nnn2-c2ccccc2)c1=O (configuration not stated)
→ 3.9	-0.1	3.3	0.9	-0.5	-17.8	3.0	1.3
- CCSc1ccc2c(c1)N(CCCN1CCN(C)CC1)c1ccccc1S2
→ ·	1.7	·	2.0	7.7	·	29.1	1.3
- CCCCCCCCSc1nnc2[nH]c(=O)cc(N)n12
→ -1.7	0.3	0.3	1.1	4.3	9.1	10.3	2.0
- O=c1cc(-c2ccc(Cl)cc2)oc(=O)[nH]1
→ 5.5	?	-1.7	-2.6	-5.7	-11.6	5.3	1.4
- CC(C)CCN1CCN(Cc2ccc(N3CCNC3=O)cc2)CC1CCO (configuration not stated)
→ -1.6	0.0	-5.9	-2.5	-4.4	2.6	-2.7	0.9
- O=C(CCc1ccccc1)Nc1ccc(N2CCOCC2)cc1
→ -4.1	-0.3	3.8	-1.4	-0.7	-12.4	-0.9	3.4
- Cc1ccccc1NC(=O)c1ccno1
→ -1.7	-0.1	8.5	-8.4	-2.8	-7.7	3.4	3.6
- O=c1c2ccccc2n(Cc2ccc(F)cc2)c(=O)n1C1CCCC1
→ 3.7	-0.4	2.6	-0.5	1.9	6.4	-1.8	1.5
- Cc1cc(O)c(-c2n[nH]c3c2C(c2cccc(O)c2)N(Cc2cccnc2)C3=O)cc1Cl (configuration not stated)
→ ?	0.4	20.6	-2.9	22.1	0.4	·	3.0
- O=C1CCCCC1S(=O)(=O)c1ccccc1 (configuration not stated)
→ -0.7	-0.4	-22.0	-0.7	-5.8	-3.4	2.4	5.3
- CC(C)N(CCNC(=O)c1ccc(NC2=NC3CS(=O)(=O)CC3S2)cc1)Cc1ccco1 (configuration not stated)
→ -0.8	1.1	2.4	6.3	0.6	-3.6	-11.2	0.6
- CCOc1ccc(Nc2ncnc3c2nnn3Cc2ccccc2)cc1
→ ?	-0.8	-3.1	1.9	2.1	9.8	12.0	-47.7
- CSCCC(NC(=O)COc1ccccc1)C(=O)NCCOc1ccccc1 (configuration not stated)
→ ·	-1.0	·	-5.1	5.3	·	-1.7	0.8
- COC(=O)c1ccccc1-c1ccc(C(c2c(C)[nH][nH]c2=O)c2c(C)[nH][nH]c2=O)o1
→ -1.2	0.6	-13.4	-4.0	-4.5	-19.2	0.4	3.5
- Cc1ccc(NC(=O)N2CCCCC2)cc1[N+](=O)[O-]
→ 4.0	-2.3	-5.8	-1.0	2.7	-6.1	-2.0	1.6
- CNc1nc(N/N=C/c2cc3c(cc2[N+](=O)[O-])OCO3)nc(Nc2ccccc2)n1
→ -5.0	0.7	11.2	-1.1	98.1*	71.5*	7.5	·
- OCCN=C1CCCc2c1[nH]c1ccc(Cl)cc21
→ 0.2	1.1	-29.6	4.6	4.1	-7.0	5.5	-21.7
- CCCN(Cc1nnc(-c2ccccc2Cl)o1)C(=O)COc1ccc(Cl)cc1
→ ·	1.1	·	-3.5	-0.5	·	1.5	-1.2

High-throughput results (PubChem BioAssay)
